Screening data (PubChem)
StopGo reporter: lowers the luciferase signal of an FMDV 2A StopGo reporter; human cells with a luciferase reporter of 2A StopGo recoding; control for the full effect not named in the record; Potency, µM (highest dose often 57.9 µM), inactives show top-dose signal change, negative = less light; 1.2% of 410,000 active; active = well fitted falling curve with a large enough effect; inconclusive = small, poorly fitted or top-dose-only effect; inactive = no such curve, though single readings can be large or run the other way; tested in HEK293T cells; also: % is scaled to controls: 0 for no effect and ±100 for the full control effect; nearly all actives have a fitted effect of over 45% in size; luciferase light after 4 h
SARS PLP yeast: SARS-CoV PLP inhibition in yeast | S. cerevisiae expressing SARS-CoV PLpro, growth rescue; control for the full effect not named in the record | Potency, µM (titrated, usually from 32.9 µM), for inactives: at the highest dose activity, positive = growth rescue | 0.19% of 330,000 active | AID 485353; active means well fitted rising curve with a large enough effect; inconclusive means small, poorly fitted or top-dose-only effect; inactive means no such curve, though single readings can be large or run the other way; also: 0% is about no effect; nearly all actives have a fitted effect of over 55% in size; growth read by luminescence after 48 h
RE007 growth inh: less growth of the S. pombe RE007 Vpr strain | S. pombe RE007 Vpr strain, BacTiter-Glo ATP luminescence, 24 h; control for the full effect not named in the record | Potency, µM (titrated, usually from 92.2 µM), inactives show at the highest dose activity change, negative = less growth | 0.21% of 360,000 active | AID 651644; active = well fitted falling curve with a large enough effect; inconclusive = small, poorly fitted or top-dose-only effect; inactive = no such curve, though single readings can be large or run the other way;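 also: % is scaled to controls: 0 for no effect and ±100 for the full control effect; nearly all actives have a fitted effect of over 50% in size; the assay follows cell death caused by Vpr and the record does not say whether a fall means rescue or toxicity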
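Fission yeast strain RE007, carrying one chromosomally integrated HIV-1 vpr copy, was seeded at OD 0.01 in PMG+AL medium with 23 nL pinned compound. After 24 h at 30 °C and 99% humidity, viability was read by BacTiter-Glo luminescence.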
NS1 inh: blocks influenza NS1 protein function | Potency, µM (doses to about 46.1 µM), inactives show at the top dose activity, positive = more growth | S. cerevisiae slowed by influenza A NS1, growth recovery by OD600 | 0.4% of 270,000 active; active means well fitted rising curve with a large enough effect; inconclusive means small, poorly fitted or top-dose-only effect; inactive means no such curve, though single readings can be large or run the other way; also: nearly all actives have a fitted effect of over 50% in size
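Compounds were scored for reversing the slow growth caused by influenza A NS1 in S. cerevisiae, measured by optical density at 600 nm. Assay medium contained 2% galactose at pH 6.0; NS1-free yeast of the same strain were the positive control.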
Lassa entry inh: inhibitors of Lassa virus binding or cell entry; 1.2% of 300,000 active; Potency, µM (series often up to 37.9 µM), for inactives: at the top dose activity change, negative = inhibition, usual class: inhibitors; Lassa virus pseudotype entry inhibition, cell reporter; control for the full effect not named in the record; active means well fitted inhibition curve with a large enough effect; inconclusive means small, poorly fitted or top-dose-only effect, or effect the other way; inactive means flat fitted curve, though single readings scatter; tested in HEK293 cells; also: % is scaled to controls: 0 for no effect and ±100 for the full control effect; nearly all actives have a fitted effect of over 50% in size; luciferase read-out
Cruzain noTriton: inhibitors of Trypanosoma cruzi cruzain without detergent; P25779; 2.3% of 200,000 active; purified cruzain, Z-FR-AMC fluorescence, no detergent; Potency, µM, for inactives: max response, negative = inhibition, most hits filed as inhibitors;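 also: plate controls were enzyme without inhibitor for no effect and buffer without enzyme for full effect; nearly all actives have a fitted effect of over 40% in size; top concentration of the series not given in the record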
Target sequence (P25779 123-467 limits assumed): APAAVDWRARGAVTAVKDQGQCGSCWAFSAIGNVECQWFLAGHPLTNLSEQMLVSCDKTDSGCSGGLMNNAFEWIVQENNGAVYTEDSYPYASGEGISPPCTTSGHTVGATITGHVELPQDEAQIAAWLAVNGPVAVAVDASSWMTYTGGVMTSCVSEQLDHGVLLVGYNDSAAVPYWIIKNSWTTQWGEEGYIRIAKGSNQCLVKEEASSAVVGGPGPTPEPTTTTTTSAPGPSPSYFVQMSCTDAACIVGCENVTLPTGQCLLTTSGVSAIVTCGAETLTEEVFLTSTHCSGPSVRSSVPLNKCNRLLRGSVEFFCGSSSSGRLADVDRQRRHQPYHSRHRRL
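Purified cruzain at 1.5 nM, pre-incubated 15 min with compound at room temperature in 100 mM sodium acetate pH 5.5, 5 mM DTT, 0.00005% Triton X-100. Reaction started with 2 uM Z-FR-AMC; AMC fluorescence increase over 60 s gives rate.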
Marburg entry inh: Marburg virus entry inhibition; 1.8% of 300,000 active; Marburg virus pseudotyped entry inhibition, cell reporter; control for the full effect not named in the record; about a third of the inactives were read at about 46 µM; AID 540276; Potency, µM (doses to about 37.8 µM), for the others: at the top dose activity change, negative = inhibition, usual class: inhibitors; active = well fitted inhibition curve with a large enough effect; inconclusive = small, poorly fitted or top-dose-only effect, or effect the other way; inactive = flat fitted curve, though single readings scatter; tested in HEK293 cells; about a fifth of its hits are not listed in these tables; also: % is scaled to controls: 0 for no effect and ±100 for the full control effect; luciferase read-out
Cruzain inh Det: inhibitors of Trypanosoma cruzi cruzain with detergent; P25779; purified cruzain, Z-FR-AMC fluorescence, 0.01% Triton; Potency, µM, without a hit: max response, negative = inhibition, most hits filed as inhibitors; 0.43% of 200,000 active; AID 1478;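 also: plate controls were neutral wells for no effect and buffer without enzyme for full effect; nearly all actives have a fitted effect of over 40% in size; top concentration of the series not given in the record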
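Cruzain (1.5 nM) preincubated 15 min at RT with compound in 100 mM sodium acetate pH 5.5, 5 mM DTT, 0.01% Triton X-100. Reaction started with 2 uM Z-FR-AMC; AMC fluorescence (ex 360/em 450 nm) change over 60 s gave rate.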
Active calls of the source: *; ? = inconclusive; nt = not tested or not shown; & = joins results of further samples; [ ] = another dose, or the depositor's remark. Unless noted, calls follow the shape of the dose curve; as a rule, active = well fitted curve in the direction sought with a large enough effect; inconclusive = small, poorly fitted or top-dose-only effect, or another doubt; inactive = no such curve, though single readings can be large; an effect the other way counts as inactive or inconclusive. Potency is read from the fitted curve at half-maximal effect.

SMILES	StopGo reporter	SARS PLP yeast	RE007 growth inh	NS1 inh	Lassa entry inh	Cruzain noTriton	Marburg entry inh	Cruzain inh Det
CCC(C)(C)n1nnnc1CN(Cc1ccco1)Cc1cc2cc3c(cc2[nH]c1=O)OCO3	-6%	1%	1%	-3%	-30%	16%	?	-7.1%
COC(=O)c1ccccc1NC(=O)c1cc(-c2ccc(O)cc2)on1	-18%	1%	6%	3%	nt	-3%	nt	-3.8%
CCOC(=O)CSc1ccc(S(=O)(=O)N2CCCCC2)cc1[N+](=O)[O-]	-17%	-3%	-5%	0%	?	-8%	0%	-7.9%
CCN(CC)CCN=C1CCCc2ccccc2N1	-14%	3%	-9%	-3%	-1%	-17%	?	1.4%
CC(Oc1cc(C(F)(F)F)cc(C(F)(F)F)c1)C(=O)NC(N)=O (stereo not given)	-7%	1%	1%	0%	6%	-12%	2%	3.3%
O=C1OC2CC3CC1CC(O)(C3)C2 (stereo not given)	-22%	-1%	15%	4%	6%	-6%	-24%	4.9%
CCc1ccc(-n2c(=O)c3ccc(C(=O)NCCc4ccccc4)cc3n(CC(N)=O)c2=O)cc1	-21%&-18%	0%	-16%	1%	-9%	-2%	32%	-0.8%
COc1ccc(Cl)cc1NC(=O)CN(C)C(=O)CNC(=O)C12CC3CC(CC(C3)C1)C2	-7%	-4%	19%	-5%	-5%	?	2%	1.1%
CC(C)N(C(=O)CSc1nc(Cc2ccccc2)nc2ccccc12)C(C)C	-24%	-2%	10%	9%	nt	nt	nt	nt
CCOc1cccc(CN2CCCC(N3CCc4ccccc4C3)C2)c1O (stereo not given)	-13%	6%	-8%	-3%	?	nt	?	nt
COc1ccc(C2/C(=C(/O)c3ccc4c(c3)CC(C)O4)C(=O)C(=O)N2CCCN2CCOCC2)cc1OC (stereo not given)	-12%	1%	-13%	14%	-5%	nt	2%	nt
Cc1cc(C)c(NC(=O)CSc2nc3ncc(Br)cc3[nH]2)c(C)c1	-27%	-7%	4%	10%	nt	nt	nt	nt
COc1ccc(N/C=C(\C(C)=O)c2ccc(OC)c(OC)c2)cc1OC	-5%	0%	-7%	nt	?	nt	-7%[46.1 µM]	nt
O=C(CN(C(=O)CSc1nc2ccccc2o1)c1ccccc1)NC1CCCCC1	nt	4%	-9%	-1%	-19%	-3%	?	4.1%
COc1ccc(C(C)C)cc1S(=O)(=O)Nc1ccncc1	99%[activator]	3%	1%	nt	-1%	nt	-16%[14.2 µM]	nt
CCOc1ccccc1NC(=O)C1CCN(C(=O)c2cccs2)CC1	-18%	-1%	6%	-7%	-24%	nt	0%[46.1 µM]	nt
Cc1cccc(OCC(O)CN2CCN(C3CCCCC3)CC2)c1 (stereo not given)	0%	3%	-11%	0%	4%	-7%	0%	2.0%
Nc1ccc2cccc(O)c2c1	34%[activator]	nt	-10%	nt	?	nt	?	nt
Cc1ccc(OCC(=O)Nc2ccc(O)c(C(=O)O)c2)cc1C	nt	2%	-4%	4%	-28%	-8%	-26%	1.1%
CCCCNC(=O)c1ccc(CNc2c(N3CCC(C(=O)OCC)CC3)c(=O)c2=O)cc1	-4%&16%	-7%	-5%&-6%	-5%	-3%&-1%	25%	?	-8.1%
O=C(COC(=O)c1cc([N+](=O)[O-])ccc1NCCO)Nc1ccc2c(c1)OCO2	?	0%	9%	4%	-28%	nt	?	nt
CC(=O)/C(N=Nc1ccc(OC(F)(F)F)cc1)=C(\C)O	7%	-1%	-7%	4%	15%[46.1 µM]	nt	-5%[46.1 µM]	nt
Cc1ccc(NC(=O)CCc2nnc3ccc(N4CCN(C)CC4)nn23)cc1F	4%	-3%	-14%	-9%	nt	nt	nt	nt
N#CCSCC(=O)Nc1ccc(Br)cc1	5%	5%	7%	3%	0%	-9%	10%	-1.5%
CCNC(=O)C(=O)NCc1ccncc1	-4%	0%	23%	0%	?	nt	3%[46.1 µM]	nt
CC(=O)NNC(=S)NC(=O)c1cccc([N+](=O)[O-])c1	10%	-3%	nt	22%	12%	-6%	9%	-2.5%
O=C1NC(=O)C(c2ccc(F)cc2)N1 (stereo not given)	7%	1%	-1%	4%	7%[46.1 µM]	nt	-13%[46.1 µM]	nt
O=C(NCCC1CCCC1)c1cccs1	61%[activator]	-11%	?	-55%	nt	nt	nt	nt
Cc1ccc(CNC(=O)CC2Sc3ccccc3NC2=O)cc1 (stereo not given)	13%	1%	25%	-1%	0%	nt	15%[46.1 µM]	nt
COc1ccc(N2CC(NC(=O)/C=C\c3ccc4c(c3)OCO4)CC2=O)cc1OC (stereo not given)	-10%	nt	nt	nt	1%[46.1 µM]	?	nt	-10%
COc1cccc(C(=O)SC2=NCCS2)c1	nt	-5%	?	-39%	-13%	-10%	-15%	5.1%
CCCn1nnnc1-c1ccc(Cl)cc1	-6%	22%	-4%	20%	4%	-6%	1%	1.2%
Cc1cc(C)c(NC(=O)CCCN2C(=O)COc3ccc(C)cc32)c(C)c1	?	nt	nt	nt	?	4%	?	-0.2%
Cc1ccc(S(=O)(=O)NC(CC(=O)n2nc(C)cc2C)c2ccccc2)cc1 (stereo not given)	-7%	-3%	-5%	-52%	-21%	5%	-2%	-8.7%
CC(C)CC(=O)NC(Oc1ccc(Cl)cc1)C(Cl)(Cl)Cl (stereo not given)	?	-12%	-15%	-36%	2%	2%	-23%	-5.0%
CC1CCN(C(=O)NC(=O)c2ccc(Cl)cc2)CC1	27%	3%	1%	2%	?	nt	8%[46.1 µM]	nt
CC(C)=NOC(=O)c1c(C)noc1-c1snnc1C	-10%	-1%	15%	-33%	14%	nt	14%[46.1 µM]	nt
COc1ccccc1N(CC(=O)NCCSc1ccccc1)S(C)(=O)=O	nt	-21%	-1%	1%	-3%	4%	?	-0.8%
COc1ccccc1NC(=O)N1CCOCC1	5%	1%	0%	-6%	10%	nt	16%	nt
O=C(NCCS(=O)(=O)N1CCN(c2ccccc2F)CC1)C1CC(=O)N(c2ccccc2)C1 (stereo not given)	-18%&-6%	4%	-7%	-2%	5%[46.1 µM]	7%	nt	-0.8%
NS(=O)(=O)c1ccc(NC(=O)C2Cc3ccccc3N2C(=O)c2ccccc2)cc1 (stereo not given)	-30%	nt	nt	nt	2%[46.1 µM]	-7%	nt	-1.2%
O=C(NNC(=O)c1cc2cc3ccccc3nc2s1)c1cccc(C(F)(F)F)c1	-10%	4%	6%	7%	6%	25µM*	-11%[46.1 µM]	-10%
CCOC(=O)c1c(NC(=O)CSc2nnc(C)c(=O)[nH]2)sc(C)c1-c1ccc(C)cc1	-8%	0%	-5%	-35%	-7%[46.1 µM]	nt	?	nt
COc1cccc(OCC(O)CNC(=O)c2oc3ccc(C)cc3c2C)c1 (stereo not given)	-12%	-5%	16%	-39%	?	nt	?	nt
Cc1ccc(S(=O)(=O)C(CCC(=O)N2CCOCC2)S(=O)(=O)c2ccc(C)cc2)cc1	5%	3%	1%[3.69 µM]	-11%	-4%	?	1%	2.8%
O=C(C1Cc2ccccc2CN1S(=O)(=O)c1ccccc1[N+](=O)[O-])N1CCOCC1 (stereo not given)	13%	-11%	-14%	nt	-5%	nt	10%	nt
Cc1ccc(NCN2C(=O)c3ccccc3C2=O)c(C)c1	-18%	7%	-4%	-2%	-3%	11%	-19%	11%
Nc1[nH]ncc1C(=O)Nc1cccc(C(F)(F)F)c1	4%	0%	-1%	2%	-7%	-3%	23%[46.1 µM]	-8.5%
Cc1ccc(NC(=O)COc2coc(CN3c4ccccc4CC3C)cc2=O)c(C)c1 (stereo not given)	?	1%	4%	nt	-9%	nt	-21%	nt
O=c1[nH]c(NCc2ccccc2)nc2c1CCC2	10%	9%	18%	-7%	-15%	-10%	-9%[46.1 µM]	1.3%
CCn1c(=O)c2ccccc2n(Cc2cccc(C)c2)c1=O	-15%	-1%	30%	-26%	0%	nt	1%	nt
O=C(Cn1nc(-c2ccc(F)cc2)ccc1=O)Nc1ccc2c(c1)OCCO2	-9%	3%	5%	-12%	3%	nt	-19%[46.1 µM]	nt
O=C(C(=Cc1ccccc1)CN1CCCCC1)c1ccccc1	3.5µM*	nt	5%	nt	3.5µM*	nt	?	nt
O=C(COC(=O)CCc1c[nH]c2ccccc12)Nc1cc([N+](=O)[O-])ccc1Cl	-13%	3%	-21%	1%	0%	-11%	3%	-13%
CN(CC(=O)Nc1ccc(Cl)cc1)C(=O)C1=COCCO1	10%	-5%	2%	nt	5%	nt	17%	nt
CC(=O)O[C@@H]1[C@H]2[C@@H](C[C@@H](C)[C@@H]3CCC(=O)[C@@]13C)OC(=O)[C@@H]2C	-15%	-1%	18%	6%	nt	nt	nt	nt
CCOCCc1c(O)nc(SCC(=O)N2CCOCC2)[nH]c1=O	-12%	0%	-3%	5%	-4%[46.1 µM]	nt	15%[46.1 µM]	nt
CC(=O)Nc1ccc(S(=O)(=O)NCc2cn3ccsc3n2)cc1	nt	1%	-3%	2%	?	8%	-1%	0.1%
Cc1ccccc1C(=O)Oc1c(Sc2ccccc2)c(C)nn1C(C)(C)C	?	nt	nt	nt	?	-3%	12%[46.1 µM]	1.3%
Cc1cccc(-n2nnnc2SCC(=O)c2cc(C)n(CC3CCCO3)c2C)c1 (stereo not given)	23%	-2%	118%	-12%	11%	27%	?	-4.8%
(list continues)
SMILES	StopGo reporter	SARS PLP yeast	RE007 growth inh	NS1 inh	Lassa entry inh	Cruzain noTriton	Marburg entry inh	Cruzain inh Det
CCC(C)NC(=O)Cn1c(=O)n(CCCC(=O)NCc2ccc(C)cc2)c(=O)c2ccccc21 (stereo not given)	0%	nt	nt	nt	9%[46.1 µM]	-10%	10%[46.1 µM]	0.1%
CCc1nc2nc(C)cc(Nc3ccc(F)c(Cl)c3)n2n1	-24%	nt	nt	nt	12%[46.1 µM]	1%	3%[46.1 µM]	-0.6%
O=C(N=C1SC2CS(=O)(=O)CC2N1c1c(Cl)cccc1Cl)C1CC1 (stereo not given)	-14%	4%	7%	2%	nt	nt	nt	nt
COC(=O)CCSCC(=O)Nc1cc(C)on1	11%	4%	6%	3%	5%	4%	0%	8.3%
O=C(CN1CCN(S(=O)(=O)c2ccc(F)c(Cl)c2)CC1)N1CCc2ccccc2C1	-24%	nt	24%	nt	-8%	nt	1%	nt
CCCC(c1nnnn1Cc1ccc(F)cc1)N1CCN(CC)CC1 (stereo not given)	-4%	0%	-2%	0%	-4%	nt	2%[46.1 µM]	nt

Hits appear at their usual frequency. About 4.7% of those tested had a hit in this group.
